Bioassay records deposited in PubChem BioAssay by National Center for Advancing Translational Sciences (NCATS).
GLA inh pH 4.5: alpha-galactosidase A (human) inhibition, pH 4.5; activity change, negative = inhibition, % at 105 µM; purified enzyme, 4-MU-alpha-Gal fluorescence, pH 4.5; 230,000 tested, under 10 active; P06280; inconclusive = small, poorly fitted or top-dose-only inhibition, or a rising curve; inactive = flat fitted curve, though single readings scatter; no compound was filed as active;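 note: 0% = full activity with enzyme and -100% = basal without enzyme; dose as in the result columns while the protocol names 77 µM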
Target sequence (P06280 whole entry, looked up): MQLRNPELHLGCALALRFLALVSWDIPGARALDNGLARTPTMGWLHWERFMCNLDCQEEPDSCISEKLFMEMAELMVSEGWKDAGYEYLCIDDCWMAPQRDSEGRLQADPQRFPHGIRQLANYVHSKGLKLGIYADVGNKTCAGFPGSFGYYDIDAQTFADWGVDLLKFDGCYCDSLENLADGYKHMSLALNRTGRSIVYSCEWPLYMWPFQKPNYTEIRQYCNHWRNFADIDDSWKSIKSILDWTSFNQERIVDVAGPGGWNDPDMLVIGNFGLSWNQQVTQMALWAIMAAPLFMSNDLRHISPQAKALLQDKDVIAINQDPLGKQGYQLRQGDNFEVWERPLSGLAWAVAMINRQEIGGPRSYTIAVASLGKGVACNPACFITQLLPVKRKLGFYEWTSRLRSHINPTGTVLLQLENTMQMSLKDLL
Rango-impB inh: Rango-importin beta binding inhibition | Potency, µM (top dose mostly 92.2 µM), for inactives: at the highest dose inhibition of complex formation | Rango CFP/YFP FRET sensor + importin beta, 45 min | 340,000 compounds, 0.031% hits; active = rising FRET ratio curve, often small or poorly fitted; inconclusive = mostly compound fluorescence or quenching in the first reads; inactive = flat curves in all reads;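 note: potency is the fitted concentration of half-maximal effect; 0% = DMSO wells and 100% = buffer wells lacking importin beta; nearly all actives have a fitted effect of over 15% in size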
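FRET biosensor (snurportin 1 IBB flanked by EYFP and cerulean), 50 nM, with compound 5 min, then 0.125 microM importin beta in PBS, 1 mM DTT, 0.02% Tween-20, 0.1% BSA. CFP/YFP ratio read after 45 min at room temperature; pre-read flags interference.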
Rango dissoc inh: prevents RanGTP from dissociating the Rango-importin beta complex | O95149+P62826 | 340,000 compounds, 0.071% hits | Biochemical FRET Rango-importin beta, RanGTP-induced dissociation | Potency, µM (series often up to 46.1 µM), inactives show top-dose activity change, negative = inhibition; active means falling FRET ratio curve, often poorly fitted, with flat reads before Ran was added; inconclusive means other falling curves, or compound fluorescence or quenching; inactive means flat or rising ratio curve;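 note: potency is the fitted concentration of half-maximal effect; % of control where 0% means no effect; nearly all actives have a fitted effect of over 45% in size; -100% = wells without RanGTP and RCC1; the record marks most hits as doubtful in a second field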
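Two FRET readings bracket the reaction: one 5 min after compound meets Rango–importin beta, another 45 min after RanGTP-RCC1 (0.6 uM Ran, 0.2 uM RCC1, 2 mM GTP) is added. Only the second defines inhibition.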
miR-21 FLuc: raises the signal of a miR-21 reporter | Potency, µM (series often up to 38.3 µM), without a hit: at the top dose reporter change, positive = more light | HeLa miR-21 FLuc reporter, luciferase, 48 h | AID 2288 | 340,000 tested, under 10 active; active = well fitted rising curve with a large enough effect; inconclusive = small, poorly fitted or top-dose-only effect; inactive = no such curve, though single readings can be large or run the other way;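 note: % of control where 0% means no effect; miR-21 action dims this reporter so a rising signal means less miR-21 action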
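Luminescence from a firefly luciferase reporter carrying a miR-21 binding site downstream, stably expressed under a CMV promoter in HeLa cells that make miR-21 endogenously, reports miRNA modulation after 48 h compound exposure up to approximately 40uM final.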
* = called active by the depositor; ? = inconclusive; . = not tested or not shown; & = joins results of further samples.

SMILES	GLA inh pH 4.5	Rango-impB inh	Rango dissoc inh	miR-21 FLuc
COc1ccc(-n2ncc3c2CC(C)(C)CC3NC(=O)CCC2=NNC(=O)CC2)cc1 (stereo not drawn)	.	-3.3%	-17%	-21%
O=[N+]([O-])c1ccc(NCCCNS(=O)(=O)c2ccccc2)c(Cl)c1	1	-1.4%	16%	-2%
CCOc1ccccc1C(=O)N(C)Cc1cc2cc(OC)ccc2[nH]c1=O	-5	?	-1%	-19%
CC(=O)Nc1c(C(=O)O)ccc(C)c1OCc1ccccc1	.	4.1%	5%	.
COc1cc(/C=C2\CCc3c2nc2ccccc2c3C(=O)O)cc(OC)c1OC	-10	?	?	-27%
CSc1nsc(SC)c1C(=O)NC(=O)Nc1cccnc1	0	-4.0%	7%	-3%
O=C(CN1C(=O)NC(Cc2c[nH]c3ccccc23)C1=O)Nc1ccc(Br)cc1F (stereo not drawn)	.	-0.1%	-7%	.
COc1ccc(CN2C(=O)C(C)S/C2=N/N=C/c2ccco2)cc1 (stereo not drawn)	1	-2.2%	0%	-57%
NC(=O)C1=CC2C3C=CC2(O)C(=O)OC3O1 (stereo not drawn)	.	3.0%	-12%	.
COc1ccccc1OCC(=O)c1[nH]c(C)c(C(C)=O)c1C	5	-1.2%	-3%	18%
Cc1cc(C)c(S(=O)(=O)N2CCCC2=O)c(C)c1	10	7.8%	0%	-1%
COc1ccc(CN2CCN(C(=O)c3cccc4ccccc34)CC2)c(OC)c1OC	.	0.8%	-1%	2%
CCOC(=O)C/C(C)=N\Nc1ccc([N+](=O)[O-])cc1[N+](=O)[O-]	-2	7.8%	6%	7%
CC(C(=O)O)N1CCCCC1 (stereo not drawn)	5	-11%	-12%	-1%
Cc1ccc(OCC(=O)N/N=C/c2cn(C)c3ccccc23)cc1	1	-2.6%	-7%	1%
CC(C)Cn1c(SCC(=O)N2CCCc3ccccc32)nc2ccccc2c1=O	0	0.4%	8%	6%
C[C@@H](CSc1ccc(Br)cc1)CN1CC[C@H](NC(=O)OCc2ccccc2)CCC1=O	.	-0.3%	24%	.
CS(=O)(=O)c1ccc(-c2nnc(NC(=O)C3=COCCO3)o2)cc1	.	1.4%	-3%	.
CC1(C)CC(NC(=O)COc2ccc3c4c(c(=O)oc3c2)CCCC4)CC(C)(C)N1	.	-2.4%	15%	16%
CCCCCCc1cc2cc(S(=O)(=O)c3ccc(C)cc3)c(=O)oc2cc1O	20	?	?	-3%

Limited to GLA inh pH 4.5, Rango dissoc inh and miR-21 FLuc, for some of the entries so far:
| molecule | GLA inh pH 4.5 | Rango dissoc inh | miR-21 FLuc |
| --- | --- | --- | --- |
| CS(=O)(=O)c1ccc(-c2nnc(NC(=O)C3=COCCO3)o2)cc1 | . | -3% | . |
| COc1cc(/C=C2\CCc3c2nc2ccccc2c3C(=O)O)cc(OC)c1OC | -10 | ? | -27% |
| CSc1nsc(SC)c1C(=O)NC(=O)Nc1cccnc1 | 0 | 7% | -3% |
| NC(=O)C1=CC2C3C=CC2(O)C(=O)OC3O1 (stereo not drawn) | . | -12% | . |
| CCOC(=O)C/C(C)=N\Nc1ccc([N+](=O)[O-])cc1[N+](=O)[O-] | -2 | 6% | 7% |

One compound at a time, as listed above. Order of screens: GLA inh pH 4.5	Rango-impB inh	Rango dissoc inh	miR-21 FLuc
`CSc1nsc(SC)c1C(=O)NC(=O)Nc1cccnc1` is listed with 0	-4.0%	7%	-3%
`COc1ccc(CN2CCN(C(=O)c3cccc4ccccc34)CC2)c(OC)c1OC` is listed with .	0.8%	-1%	2%

Additional records follow:
SMILES	GLA inh pH 4.5	Rango-impB inh	Rango dissoc inh	miR-21 FLuc
CCC(Sc1nc2ncccc2[nH]1)C(=O)NC1CCC(C)CC1 (stereo not drawn)	.	0.0%	6%	7%
CCOc1ccc(/C=N/NC(=O)Cc2cccs2)cc1	-7	-2.5%	26%	-52%
Cc1ccc2nc(-c3cccc(N)c3)oc2c1	2	-2.5%	5%	14%
O=C(Cc1cn2ccsc2n1)NCCc1ccc(F)cc1	-1	3.7%	-13%	-4%
CCOCCCN1CN(Cc2ccccc2)CNC1=S	-13	4.7%	4%	-4%
O=[N+]([O-])c1ccc2[nH]c(O)c(N=NC(=S)Nc3cccnc3)c2c1	-15	?	-4%	1%
CCc1ccc(OCC(=O)NCCN(C)C)c(Br)c1	2	2.4%	3%	-12%
CC(C)=NNC(=O)C1=NNC(=O)C1	-4	-0.7%	20%	0%
Cc1ccccc1OCC(=O)O/N=C(\N)c1ccncc1	.	3.7%	-10%	-52%
CC(=O)c1ccc(OCCCC(=O)OCC(=O)Nc2c(C)nn(-c3ccccc3)c2C)cc1	.	1.6%	6%	.
COc1ccc(C(=O)c2c3ccccc3[n+]([O-])n2CCCN)cc1	.	0.3%&-5.2%	9%&39%	.
O=C(Nc1ccc2nc3n(c(=O)c2c1)CCCCC3)c1ccccn1	12	-6.2%	1%	-55%
CC1Sc2ccc(S(=O)(=O)CCC(=O)N(C)Cc3ccccc3)cc2NC1=O (stereo not drawn)	.	-1.7%	10%	14%
COc1ccc(NC(=O)NCCC2=CCCCC2)cc1	10	0.0%	?	-47%
CCOC(=O)Nc1ccc2c(COC(=O)C(NS(=O)(=O)c3ccc(Cl)cc3)C(C)O)cc(=O)oc2c1 (stereo not drawn)	.	-1.7%	1%	.
O=[N+]([O-])c1ccc(N2CCN(CCOc3nonc3-c3ccccc3)CC2)c(Cl)c1	13	-1.9%	-1%	-3%
Cc1ccc2c(Cl)cc(Cl)c(OCC(=O)OCC(=O)Nc3ccc(C#N)cc3)c2n1	-12	-1.3%	1%	-7%
CCCCc1ccc(NC(=O)Nc2cnccn2)cc1	.	1.4%	-11%	-14%
COc1ccc(C(=O)N/C(=C\c2ccc3c(c2)OCO3)C(=O)NCCc2nc3ccccc3[nH]2)cc1	3	?	-1%	0%
Cn1ncc(N=Cc2c(O)ccc3ccccc23)c1C(=O)N1CCOCC1	.	2.7%	?	.
O=C(NNC(=O)C12CC3CC(CC(C3)C1)C2)c1ccco1	-1	-1.0%	-3%	-7%
Cc1c(C(=O)N2CCOCC2)[nH]c2c1C(=O)CC(c1ccc(Cl)cc1)C2 (stereo not drawn)	-2	-0.9%	-3%	11%
O=C(O)c1cc(-c2cccnc2)nc2ccc(Br)cc12	-1	0.2%	-4%	-1%
Nc1nonc1-n1nnc(C(=O)N/N=C/c2ccc(OCc3ccccc3)cc2)c1CNc1ccccc1	.	-2.9%	17%	-15%
Cc1ccc(C(=O)Nc2nc3c(s2)CCCC3)o1	-3	-7.6%	27%	-10%
COc1cc(OC)cc(C(=O)NNC(=O)C(=O)Nc2cc(OC)c(Cl)cc2OC)c1	.	-1.0%	3%	-3%
Cc1ccc(C)c2[nH]c(=O)c(CN(Cc3nnnn3C3CCCCC3)CC3CCCO3)cc12 (stereo not drawn)	4	-0.6%	2%	0%
C=CCOc1ccc(CN(C)CC(=O)N(CC(C)C)c2c(N)n(CC(C)C)c(=O)[nH]c2=O)cc1	-1	-3.9%	-12%	-8%
CCC(=N\NC(=O)COc1ccccc1OC)/C(CC)=N/NC(=O)COc1ccccc1OC	.	1.6%	0%	.
CCc1cc2c(SCC(=O)Nc3ccc(NC(C)=O)cc3)ncnc2s1	.	?	?	.
COc1cccc(-c2cc(C(F)(F)F)nc(NCc3ccco3)n2)c1	-14	-2.6%	2%	-13%
Cc1nnc(SCC(=O)N(C)CC(=O)Nc2ccccc2Cl)s1	.	-3.8%	-4%	.
CC1(C)Cc2nc3scc(NC(=O)c4ccccc4)c3cc2CO1	-19	-1.6%	13%	-7%
COc1ccc(CC(=O)N/N=C(\C)c2cccs2)cc1OC	.	0.1%	-8%	-5%
COc1ccccc1NC=C1C(=O)OC2(CCCCC2)OC1=O	-1	0.8%	1%	-11%
CC(C)CCCC(C)NS(=O)(=O)Cc1ccccc1 (stereo not drawn)	-3	-0.3%	1%	-6%
Cc1nn(Cc2c(F)c(F)c(F)c(F)c2F)c(C)c1NC(=O)c1c([N+](=O)[O-])c(C)nn1C	3	1.5%	0%	-2%
N#C/C(=C\c1ccc(O)c(O)c1)C(=O)Nc1ccccc1	-18&-17	?	?	.
O=C(NCCc1ccccc1)C1CCN(S(=O)(=O)N2CCCCC2)CC1	.	3.4%	17%	0%
CCOc1ccc(CCNC(=O)COC(=O)CSc2ccccc2C)cc1OCC	.	-1.2%	-2%	3%
CC(C)=CCCC(C)CN(C)CCc1ccccn1 (stereo not drawn)	-8	-0.7%	14%	-6%
[O-][n+]1c2ccc3nonc3c2nn1-c1ccccc1Cl	5	-2.7%	8%	1%
COc1cc(-c2cc(C(=O)Nc3c(Cl)cc(Cl)cc3Cl)c3ccccc3n2)cc(OC)c1OC	-4	0.1%	?	1%
COc1ccc(CCNC(=O)CSc2nnc(CNC(=O)c3c(F)cccc3Cl)o2)cc1OC	.	?	-2%	0%
O=C(Cn1cnc2ccccc21)Nc1cccc([N+](=O)[O-])c1	7	0.5%	-7%	6%
COc1cc2cc(-c3ccc(O)cc3O)nc(C)c2cc1OC	.	-0.5%	13%	-12%
CN(C(=O)COC(=O)Cn1cnc2c1c(=O)n(C)c(=O)n2C)C1(C#N)CCCCC1	.	-1.7%	-1%	.
COCCCNC(=O)C(Cc1ccccc1)NS(=O)(=O)c1ccc2c(c1)c(=O)n(C)c(=O)n2C (stereo not drawn)	5	-0.7%	1%	-8%
O=C(Nc1cccnc1Cl)c1noc2c1CCc1ccccc1-2	-7	-0.3%	-14%	-38%
Cc1ccc(S(=O)(=O)N(C)C)cc1NC(=O)C(C)OC(=O)c1ccc2c(c1)OCCO2 (stereo not drawn)	-3	1.2%	23%	-5%
Cc1cc(C)c2c(n1)SCC(=O)N2CC(=O)Nc1ccc(C)c(C)c1	.	-2.2%	-19%	0%&-9%
COc1ccc(C(=O)N/N=C/c2ccc(OC)c(CN3CCCc4ccccc43)c2)cc1	5	-4.5%	30%	-9%
CC(=O)c1c(C)[nH]c(C(=O)COC(=O)COc2ccccc2)c1C	.	-1.8%	-7%	.
CCOc1ccccc1-c1cc(C(=O)N/N=C/c2cccnc2)c2ccccc2n1	.	0.2%	11%	.
CCOc1ccc(C(C)=O)cc1COC(=O)C1=COCCO1	-2	0.7%	23%	-1%
O=C(N/N=C/C=C\c1ccc([N+](=O)[O-])cc1)c1cccnc1	-2	1.1%	1%	0%
Cc1ccc(-n2nnnc2-c2ccco2)cc1	2	4.5%	11%	-8%
CCOC(=O)c1ccc(NC(=O)CSc2nnc(-c3cccs3)n2C)cc1	-3	0.3%	1%	-2%
NC1=NC[C@H](Cc2ccc(O)cc2)N1CCc1cc(C(F)(F)F)cc(C(F)(F)F)c1	2	-2.6%	2%	-3%
COCCNC(=O)C(=O)N/N=C/c1ccccc1C(F)(F)F	0	-0.3%	3%	-9%

More records follow:
SMILES	GLA inh pH 4.5	Rango-impB inh	Rango dissoc inh	miR-21 FLuc
O=C(Nc1ccccc1O)c1cc(S(=O)(=O)N2CCOCC2)c(Cl)cc1Cl	8	0.0%	25%	20%
Cc1ccccc1C(=O)NC1CCN(CC(=O)N2CCCCC2C)CC1 (stereo not drawn)	.	3.4%	-10%	-1%
COc1ccc(Cc2nc3ccc(C(=O)N4CCCC4)cc3o2)cc1	.	1.1%	0%	-58%
COc1ccc(NC(=O)CSC(C)c2nc3ccccc3c(=O)[nH]2)cc1 (stereo not drawn)	.	0.6%	0%	0%
CCCCOc1ccc(C(=O)NCC(=O)NCC(=O)OCC)cc1	2	-0.8%	0%	7%
CN(CC(=O)Nc1ccc(Cl)c(Cl)c1)CC(=O)Nc1ccc2c(c1)OCO2	.	-1.3%	19%	.
O=c1cc(NC2CCCCCC2)[nH]c(=O)[nH]1	0	-0.4%	-15%	-5%
Cc1ccc(S(=O)(=O)Nc2ccc3c(c2)nc(CCN2CCN(c4ccccn4)CC2)n3C)cc1	.	-1.5%	-16%	10%
COC(=O)c1sccc1NC(=O)c1csc(C)c1	6	2.4%	2%	-4%
NC(=O)C1CCN(c2cc(N3CCOCC3)ccc2[N+](=O)[O-])CC1	-2	-1.5%	1%	-1%
COc1ccc(C(O)c2ncc(C(F)(F)F)cc2Cl)cc1 (stereo not drawn)	.	-3.5%	15%	0%
COC(=O)C1CCN(C(=O)COC(=O)c2ccc(N3CCCC3=O)cc2)CC1	.	-5.4%	4%	.
CCC(C)[C@H](NC(=O)N1CCCCC1)C(=O)OC (stereo partly drawn)	-1	-0.5%	-4%	4%

This is a subset; count on the stated rates, not on these rows.
